Screens as filed in PubChem.
p53 mut binder – binders of human mutant p53 | AID 624136 | small molecule microarray binding, anti-GST fluorescence | calls only | 17,000 compounds, 0.4% hits;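 active means compounds whose four printed spots each glow above background more than chance allows, each with a p-value under 7%; compounds were printed on slides so no solution concentration is given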;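 further: about 2 pmol printed per array spot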
ID4 binder – ID4 (human) binding; AID 624137; 31,000 compounds, 1.2% hits; calls only; small molecule microarray, Flag-ID4 binding, fluorescence F/B; P47928;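 active means spot signal over background at p below 0.07 in all four prints; compounds were printed on slides so no solution concentration is given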;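 further: a binder raises fluorescence above local background on the spot; about 2 pmol printed per array spot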
Target sequence (P47928 whole entry, looked up): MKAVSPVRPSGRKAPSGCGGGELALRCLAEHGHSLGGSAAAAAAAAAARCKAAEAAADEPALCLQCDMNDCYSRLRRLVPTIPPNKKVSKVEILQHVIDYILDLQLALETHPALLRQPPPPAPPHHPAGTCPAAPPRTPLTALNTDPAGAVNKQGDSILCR
STAT3 binder – binds human STAT3 on microarray. P40763. Small molecule microarray, His-STAT3 binding, anti-His fluorescence. calls only. 17,000 compounds, 0.2% hits. AID 624138;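 active means compounds whose four printed spots each show fluorescence over background unusually high for their array block, chance value under 7%; compounds were printed on slides so no solution concentration is given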;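 further: about 2 pmol printed per array spot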
Target sequence (P40763 whole entry, looked up): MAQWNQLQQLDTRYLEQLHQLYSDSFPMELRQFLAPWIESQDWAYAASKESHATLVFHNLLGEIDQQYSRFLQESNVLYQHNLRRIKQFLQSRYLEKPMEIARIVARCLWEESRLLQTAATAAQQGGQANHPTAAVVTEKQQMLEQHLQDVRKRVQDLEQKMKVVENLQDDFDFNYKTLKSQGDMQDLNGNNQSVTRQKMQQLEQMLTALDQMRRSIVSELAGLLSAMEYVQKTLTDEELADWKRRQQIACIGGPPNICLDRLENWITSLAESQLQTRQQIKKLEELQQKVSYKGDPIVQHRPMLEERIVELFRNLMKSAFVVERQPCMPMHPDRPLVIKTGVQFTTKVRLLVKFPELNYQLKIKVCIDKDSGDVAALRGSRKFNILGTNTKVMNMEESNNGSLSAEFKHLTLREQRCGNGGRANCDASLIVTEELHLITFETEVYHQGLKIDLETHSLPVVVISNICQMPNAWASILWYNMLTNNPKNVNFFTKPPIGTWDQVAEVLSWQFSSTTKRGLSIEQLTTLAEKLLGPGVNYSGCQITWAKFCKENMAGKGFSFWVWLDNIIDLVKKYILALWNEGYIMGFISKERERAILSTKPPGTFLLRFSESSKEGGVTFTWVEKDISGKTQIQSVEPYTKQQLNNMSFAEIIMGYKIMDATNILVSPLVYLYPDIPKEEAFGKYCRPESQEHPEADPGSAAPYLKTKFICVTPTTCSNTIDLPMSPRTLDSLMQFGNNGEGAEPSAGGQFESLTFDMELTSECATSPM
Myc binder – binders of human c-Myc; P01106; small molecule microarray, His-c-Myc binding, anti-His fluorescence; calls only; 17,000 compounds, 1.5% hits;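 active means spot fluorescence over background with P-value below 7% in all four replicate spots, showing protein binding; compounds were printed on slides so no solution concentration is given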;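 further: score is binary with 100 for all four spots passing and 0 otherwise; about 2 pmol printed per array spot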
Calls only; i = inactive; . = no result given; + = active, no number. An excerpt; rates above refer to the full screens.

cpd	SMILES	p53 mut binder	ID4 binder	STAT3 binder	Myc binder
1	CC1=CC(=O)CC(C)(C)[C@@]1(O)/C=C/C(C)O[C@@H]1O[C@H](CO)[C@@H](O)[C@H](O)[C@H]1O (some centres not stated)	i	i	i	i
2	C[C@@H]1CN([C@H](C)CO)C(=O)c2cc(NC(=O)Cc3ccccc3)ccc2O[C@@H]1CN(C)Cc1ccc(C(F)(F)F)cc1	i	.	i	i
3	Cc1ccc(S(=O)(=O)N(C)C[C@@H]2Oc3ccc(NC(=O)C4CC4)cc3CC(=O)N([C@H](C)CO)C[C@@H]2C)cc1	i	i	i	i
4	Cc1ccc(S(=O)(=O)N(C)C[C@H]2Oc3ccc(NS(=O)(=O)c4ccc(F)cc4)cc3CC(=O)N([C@@H](C)CO)C[C@@H]2C)cc1	i	.	i	i
5	CN1CCc2cc3c(cc2C2OC(O)c4c(ccc5c4OCO5)C21)OCO3 (configuration not stated)	i	i	i	i
6	C[C@H](CO)N1C[C@H](C)[C@H](CN(C)S(=O)(=O)c2cccs2)Oc2ccc(N(C)C)cc2CC1=O	i	i	i	i
7	C[C@H]1CN([C@@H](C)CO)C(=O)c2cccc(NC(=O)c3ccncc3)c2O[C@@H]1CN(C)S(=O)(=O)c1cccs1	i	.	i	i
8	C[C@@H]1CN([C@H](C)CO)C(=O)c2cccc(NS(C)(=O)=O)c2O[C@@H]1CN(C)S(=O)(=O)c1ccc(Cl)cc1	i	i	i	i
9	NS(=O)(=O)c1ccc(CNC(=O)c2cc(-c3ccccn3)nc3ccc(Br)cc23)cc1	i	i	i	i
10	C[C@@H]1CN([C@@H](C)CO)C(=O)c2cc(NC(=O)c3ccncc3)ccc2O[C@@H](C)CCCCO[C@H]1CN(C)C(=O)Cc1ccccc1	i	+	i	i
11	CCCn1c(=O)c2[nH]c(-c3ccccc3)nc2n(CCC)c1=O	i	i	i	i
12	C[C@@H]1CN([C@H](C)CO)C(=O)c2cc(NS(=O)(=O)c3cccs3)ccc2O[C@H]1CN(C)C	i	i	i	i
13	COc1ccc(S(=O)(=O)N(C)C[C@@H]2Oc3ccc(NC(=O)Cc4cn(C)c5ccccc45)cc3C(=O)N([C@@H](C)CO)C[C@H]2C)cc1	i	i	i	i
14	CC(C)NC(=O)N(C)C[C@@H]1OCCCC[C@H](C)Oc2ccc(NS(C)(=O)=O)cc2C(=O)N([C@@H](C)CO)C[C@H]1C	i	i	i	i
15	Cc1noc(C)c1NC(=O)N(C)C[C@H]1Oc2ccc(NC(=O)NC(C)C)cc2CC(=O)N([C@H](C)CO)C[C@H]1C	i	i	i	i

(further entries)
cpd	SMILES	p53 mut binder	ID4 binder	STAT3 binder	Myc binder
16	COc1ccc(S(=O)(=O)Nc2cccc3c2O[C@H](CN(C)S(=O)(=O)c2ccc(F)cc2)[C@H](C)CN([C@H](C)CO)C3=O)cc1	i	i	i	i
17	CCCN(C)C[C@@H]1OCCCC[C@H](C)Oc2ccc(NS(=O)(=O)c3ccc(C)cc3)cc2C(=O)N([C@H](C)CO)C[C@@H]1C	i	.	i	i
18	C[C@H]1CCCCO[C@H](CN(C)C(=O)Nc2ccc3c(c2)OCO3)[C@@H](C)CN([C@@H](C)CO)C(=O)c2cc(NS(=O)(=O)c3ccc(F)cc3)ccc2O1	i	.	i	i
19	C[C@@H]1CN([C@H](C)CO)C(=O)CCCn2cc(nn2)CO[C@@H]1CN(C)S(=O)(=O)c1ccccc1	i	i	i	i
20	C[C@H](CO)N1C[C@H](C)[C@H](CN(C)C(=O)Nc2ccc(F)cc2)Oc2ccc(NS(=O)(=O)c3cn(C)cn3)cc2C1=O	i	i	i	i
21	C[C@H](CO)N1C[C@H](C)[C@H](CN(C)C(=O)Nc2ccc(C(F)(F)F)cc2)OCc2cnnn2CCCC1=O	i	.	i	i
22	Cc1noc(C)c1S(=O)(=O)Nc1ccc2c(c1)C(=O)N([C@@H](C)CO)C[C@H](C)[C@@H](CN(C)S(=O)(=O)c1c(C)noc1C)OCCCC[C@H](C)O2	i	.	i	i
23	C=CCSC1=N[C@@]2(COCc3ccc(OC)cc3)Oc3ccccc3[C@H]([C@H]2CO[Si](C)(C)C(C)(C)C)N1C(=O)c1ccccc1	i	i	i	i
24	c1ccc2c(c1)[nH]c1nc(SCCN3CCCCC3)nnc12	i	i	i	+
25	CC(C)NC(=O)N(C)C[C@H]1OCCCC[C@@H](C)Oc2ccc(N(C)C)cc2C(=O)N([C@@H](C)CO)C[C@H]1C	i	i	i	i
26	C[C@@H]1CN([C@H](C)CO)C(=O)c2cccc(NC(=O)Nc3ccc4c(c3)OCO4)c2O[C@H]1CN(C)C(=O)NC1CCCCC1	i	i	i	i
27	C[C@H](CO)N1C[C@H](C)[C@H](CN(C)CC2CCCCC2)Oc2ccc(NC(=O)Nc3ccc4c(c3)OCO4)cc2C1=O	i	i	i	i
28	C[C@@H]1CN([C@H](C)CO)C(=O)Cc2cc(NC(=O)NC3CCCCC3)ccc2O[C@@H]1CN(C)Cc1ccncc1	i	i	i	i
29	CC(=O)N1CCN(c2ccc(N)cc2)CC1	i	.	i	i
30	COc1cccc(NC(=O)CSc2nnc(-c3ccccc3O)n2-c2ccccc2)c1	i	i	i	i

Next part, starting with the last 5 of the part before.
cpd	SMILES	p53 mut binder	ID4 binder	STAT3 binder	Myc binder
26	C[C@@H]1CN([C@H](C)CO)C(=O)c2cccc(NC(=O)Nc3ccc4c(c3)OCO4)c2O[C@H]1CN(C)C(=O)NC1CCCCC1	i	i	i	i
27	C[C@H](CO)N1C[C@H](C)[C@H](CN(C)CC2CCCCC2)Oc2ccc(NC(=O)Nc3ccc4c(c3)OCO4)cc2C1=O	i	i	i	i
28	C[C@@H]1CN([C@H](C)CO)C(=O)Cc2cc(NC(=O)NC3CCCCC3)ccc2O[C@@H]1CN(C)Cc1ccncc1	i	i	i	i
29	CC(=O)N1CCN(c2ccc(N)cc2)CC1	i	.	i	i
30	COc1cccc(NC(=O)CSc2nnc(-c3ccccc3O)n2-c2ccccc2)c1	i	i	i	i
31	COc1ccc(NC(=O)Nc2ccc3c(c2)C(=O)N([C@@H](C)CO)C[C@@H](C)[C@H](CN(C)C)O3)cc1	i	i	i	i
32	C[C@H]1CN([C@@H](C)CO)C(=O)CCCn2cc(nn2)CO[C@H]1CN(C)Cc1ccc2c(c1)OCO2	i	i	i	i
33	COC(=O)c1cn(CC(=O)Nc2ccccc2C(F)(F)F)c2ccccc12	i	i	i	i
34	COc1ccc(NC(=O)Nc2ccc3c(c2)C(=O)N([C@@H](C)CO)C[C@H](C)[C@@H](CN(C)S(=O)(=O)c2ccc(OC)cc2)O3)cc1	i	i	i	i
35	C[C@H](CO)N1C[C@H](C)[C@H](CN(C)Cc2ccncc2)Oc2ccc(NC(=O)Nc3cccc4ccccc34)cc2CC1=O	i	i	i	i
36	CC(C)NC(=O)Nc1ccc2c(c1)C(=O)N([C@H](C)CO)C[C@H](C)[C@@H](CN(C)C(=O)c1ccncc1)OCCCC[C@H](C)O2	i	i	i	i
37	C[C@H]1CN([C@@H](C)CO)C(=O)Cc2cc(NC(=O)Nc3ccccc3)ccc2O[C@H]1CN(C)C(=O)Nc1ccc(C(F)(F)F)cc1	i	i	i	i
38	Cc1ncc([N+](=O)[O-])n1Cc1n[nH]c(=S)n1C	i	i	i	i
39	C[C@@H]1CN([C@H](C)CO)C(=O)c2cc(NC(=O)Nc3ccc4c(c3)OCO4)ccc2O[C@@H](C)CCCCO[C@@H]1CN(C)C(=O)c1ccccc1	i	i	i	i
40	COC(=O)c1ccc(NCc2cc(O)ccc2O)cc1	i	.	i	i
41	C[C@@H]1CN([C@H](C)CO)C(=O)CCCn2cc(nn2)CO[C@@H]1CN(C)S(=O)(=O)c1ccc(Oc2ccccc2)nc1	i	i	i	i
42	C[C@H](CO)N1C[C@H](C)[C@@H](CN(C)S(=O)(=O)c2cccs2)Oc2c(NC(=O)C3CCOCC3)cccc2C1=O	i	i	i	i
43	C[C@H]1CN([C@@H](C)CO)C(=O)c2cccc(NS(=O)(=O)c3cccs3)c2O[C@H]1CN(C)Cc1ccc(C(F)(F)F)cc1	i	i	i	i
44	Cc1oc(-c2ccc3c(c2)OCCO3)cc1C(=O)NCC(=O)O	i	i	i	i
45	Cn1c(SCC(=O)Nc2ccccc2)nnc1-c1ccccc1F	i	i	i	i

More records
cpd	SMILES	p53 mut binder	ID4 binder	STAT3 binder	Myc binder
46	C[C@H]1CN([C@@H](C)CO)C(=O)c2cc(NC(=O)Cc3ccccc3)ccc2O[C@H]1CN(C)CC1CC1	i	i	i	i
47	C#CCNC(=O)C1=C[C@H](c2ccc3c(c2)OCO3)[C@@H](CCCO)[C@H](OCC)O1	i	i	i	i
48	COC1OC(OC)C(O)(CC[C@@]2(O)[C@H](C)C[C@@H](O)C3[C@@](C)(CO)CCC[C@]32C)C1O (some centres not stated)	i	.	i	i
49	C[C@@H]1CCCCO[C@H](CN(C)C(=O)Nc2ccccc2)[C@@H](C)CN([C@@H](C)CO)C(=O)c2cc(NC(=O)CCC(F)(F)F)ccc2O1	i	i	i	+
50	C[C@@H]1CN([C@H](C)CO)C(=O)c2cc(NC(=O)Nc3ccc(F)cc3)ccc2O[C@@H]1CN(C)S(=O)(=O)c1cccs1	i	i	i	i
51	COc1ccc(-c2oc3c(OC)c(OC)c(OC)c(O)c3c(=O)c2OC)cc1OC	i	.	i	i
52	CC1(C)CC[C@@]2(C(=O)O[C@@H]3O[C@H](CO)[C@@H](O)[C@H](O)[C@H]3O)C(C1)C1=CCC3[C@@]4(C)CC[C@@H](O[C@@H]5O[C@H](CO)[C@@H](O)[C@H](O)[C@H]5O[C@@H]5O[C@H](CO)[C@@H](O)[C@H](O)[C@H]5O)C(C)(C)C4CC[C@@]3(C)[C@]1(C)C[C@H]2O (some centres not stated)	i	i	i	i
53	COc1ccccc1N1CCN(CC(C(=O)NC(C)(C)C)c2ccccc2)CC1 (configuration not stated)	i	i	i	i
54	C[C@H]1CN([C@@H](C)CO)C(=O)c2cccc(NS(=O)(=O)c3cn(C)cn3)c2O[C@H]1CN(C)S(=O)(=O)c1ccc(F)cc1	i	i	i	i
55	Cc1ccc(S(=O)(=O)N(C)C[C@H]2Oc3c(NS(=O)(=O)c4ccccc4)cccc3C(=O)N([C@@H](C)CO)C[C@H]2C)cc1	i	.	i	i
56	C[C@]12C=CC(=O)N1CCc1c2[nH]c2ccccc12	i	.	i	i
57	CNC[C@H]1Oc2ccc(NC(=O)Cc3ccccc3)cc2CC(=O)N([C@H](C)CO)C[C@H]1C	i	i	i	i
58	O=C(C1=C[C@@H](c2ccc(Br)cc2)C[C@@H](OCc2ccc(CO)cc2)O1)N1CCCC1	i	i	i	i
59	CCN(CC(=O)Nc1ccc(Br)cc1F)S(=O)(=O)c1ccc(Cl)cc1	i	i	i	i
60	C[C@@H]1CN([C@H](C)CO)C(=O)c2cc(NS(=O)(=O)c3cn(C)cn3)ccc2O[C@H]1CN(C)C(=O)NC1CCCCC1	i	i	i	i

Next part
cpd	SMILES	p53 mut binder	ID4 binder	STAT3 binder	Myc binder
61	O=C1c2c(O)cc(O)cc2O[C@H](c2ccccc2)[C@H]1O	i	.	i	i
62	C[C@@H]1CN([C@@H](C)CO)C(=O)c2cc(NS(=O)(=O)c3ccccc3)ccc2O[C@@H](C)CCCCO[C@H]1CN(C)S(=O)(=O)c1cccs1	i	.	i	i
63	CCc1cc2c(NCC3CCCO3)ncnc2s1 (configuration not stated)	i	i	i	i
64	O=C1O[C@@H](c2ccccc2)[C@@H](c2ccccc2)N2[C@@H](c3ccc(O)cc3)[C@]3(C(=O)Nc4ccccc43)[C@@H](C(=O)N3CCCCCCC3)[C@H]12	i	i	i	i
65	C[C@H]1CN([C@@H](C)CO)C(=O)c2cccc(NC(=O)C3CCOCC3)c2O[C@@H]1CN(C)C(=O)Nc1ccc(C(F)(F)F)cc1	i	i	i	i
66	COc1cc(OC)c2c(O)c3c(c(-c4c5c(c(O)c6c(OC)cc(OC)cc46)CO[C@@H](C)[C@H]5O)c2c1)[C@H](O)[C@H](C)OC3	i	.	i	i
67	CS(=O)(=O)N(CC(=O)Nc1cc(Cl)ccc1Cl)c1cc(Cl)c(Cl)cc1Cl	i	i	i	i
68	CC(C)NC(=O)N(C)C[C@H]1OCCCC[C@@H](C)Oc2ccc(N(C)C)cc2C(=O)N([C@H](C)CO)C[C@H]1C	i	i	i	i
69	C[C@@H]1CN([C@@H](C)CO)C(=O)c2cc(N(C)C)ccc2O[C@@H](C)CCCCO[C@H]1CN(C)C(=O)CCCN(C)C	i	i	i	i
70	C[C@@H]1CN([C@@H](C)CO)C(=O)Cc2cc(NC(=O)NC3CCCCC3)ccc2O[C@H]1CN(C)C(=O)Nc1ccc(F)cc1	i	i	i	i
71	Cc1noc(C)c1NC(=O)N(C)C[C@@H]1Oc2c(NS(=O)(=O)c3ccccc3)cccc2C(=O)N([C@H](C)CO)C[C@H]1C	i	i	i	i
72	COc1ccc(COC[C@]23Oc4ccccc4[C@H]([C@H]2COC(=O)c2ccccc2)N(C(=O)CC(C)=O)C(=O)N3C)cc1	i	i	i	i
73	C[C@H]1CN([C@@H](C)CO)C(=O)Cc2cc(N(C)C)ccc2O[C@@H]1CN(C)C(=O)Nc1ccccc1	i	i	i	i
74	Cn1c(Cc2ccccc2)nnc1Sc1ccc([N+](=O)[O-])cc1C(=O)N1CCOCC1	i	i	i	i
75	Cc1ccc(F)cc1S(=O)(=O)N[C@@H]1CCN(Cc2ccc3[nH]ccc3c2)C1	i	i	i	i
76	COC(=O)C1=C(C)NC(C)=C([N+](=O)[O-])[C@H]1c1ccccc1C(F)(F)F	i	.	i	i
